From PubChem
HNF4A DNA FP: change in binding of human HNF4A to DNA, primary screen, biochemical, fluorescence polarization, FITC-DNA; Hepatocyte nuclear factor 4-alpha (Homo sapiens), P41235; 1 h; activity change, % at 10 µM; 360,000 tested, 0.3% active; AID 1224865, 2016; in the data active = activity change above about 30%, passing the limit was not always enough;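 also: controls were the assay level and a saturating level of protein; the project sought stronger binding though the title names inhibitors; some compounds called inactive have numbers as strong as hits; positive values seem to mean higher polarization but the record does not say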
Target sequence (P41235 whole entry, looked up): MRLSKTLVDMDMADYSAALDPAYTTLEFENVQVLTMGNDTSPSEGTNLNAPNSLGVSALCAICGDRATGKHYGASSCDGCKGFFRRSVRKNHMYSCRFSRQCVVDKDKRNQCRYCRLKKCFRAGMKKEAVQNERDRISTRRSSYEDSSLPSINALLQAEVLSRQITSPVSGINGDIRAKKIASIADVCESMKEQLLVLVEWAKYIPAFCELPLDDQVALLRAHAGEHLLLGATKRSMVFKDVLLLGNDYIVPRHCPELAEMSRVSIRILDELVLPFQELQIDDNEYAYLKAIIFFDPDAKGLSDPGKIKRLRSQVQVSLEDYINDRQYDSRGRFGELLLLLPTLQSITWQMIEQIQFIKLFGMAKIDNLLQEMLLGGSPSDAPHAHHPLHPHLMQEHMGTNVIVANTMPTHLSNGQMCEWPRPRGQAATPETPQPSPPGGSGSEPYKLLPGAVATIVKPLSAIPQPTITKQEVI
MLL AF4-AF9 inh: inhibitors of AF4 peptide binding to AF9, primary screen, biochemical, AlphaScreen, biotin-AF4 peptide, FLAG-AF9, single point. inhibition, % at 10 µM. 350,000 tested, 0.47% active;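 active = every replicate reaching a set inhibition limit, whatever the replicate mean, cut at about 25% in these data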;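 also: 0% = plate neutral control median and 100% = total signal loss; the record names both 10 and 1 µM as test concentration; the first replicate is given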
E coli growth: E. coli growth inhibition, primary screen, OD600; Escherichia coli growth, 23 h; stronger effect = lower value; OD600 absorbance (no concentration beside the values); 330,000 tested, 0.21% active; AID 1053175, 2014;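 active = OD600 absorbance below the run mean of sample wells minus 3.6 SD, in any replicate, cut at about 0.56 in these data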;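 also: stock transfer was 300 nL into about 60 µL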
ALR inh: inhibitors of human ALR sulfhydryl oxidase, primary screen, biochemical, H2O2 detection, HRP-luminol luminescence, single point | FAD-linked sulfhydryl oxidase ALR (Homo sapiens), P55789 | purified ALR, DTT oxidation | inhibition, % (concentration not given with the values) | 290,000 tested, 3.8% active | AID 485317, 2010;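 active = mean and each replicate at 75% or more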;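 also: stock transfer was 7.5 nL into about 7.5 µL; 0% = neutral wells and 100% = wells with inactivated enzyme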
Target sequence (P55789 whole entry, looked up): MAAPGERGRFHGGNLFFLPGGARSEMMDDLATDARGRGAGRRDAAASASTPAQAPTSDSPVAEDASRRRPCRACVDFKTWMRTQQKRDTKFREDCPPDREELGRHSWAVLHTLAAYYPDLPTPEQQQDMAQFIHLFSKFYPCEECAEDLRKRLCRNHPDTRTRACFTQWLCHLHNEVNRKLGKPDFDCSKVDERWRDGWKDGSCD
FGF22 binding: binders of human FGF22 protein, primary screen, FGF22 synaptogenesis inhibitor project, biophysical, thermal shift, single point. recombinant FGF22 thermal shift, SYPRO orange fluorescence; percent of sucrose octasulfate shift, DMSO zero. calls only at 9.99 µM. 340,000 tested, 1.5% active;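 active = melting point raised past a set limit in the mean and every replicate; three in four hits are not shown here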
Target sequence (Q9HCT0 whole entry, looked up): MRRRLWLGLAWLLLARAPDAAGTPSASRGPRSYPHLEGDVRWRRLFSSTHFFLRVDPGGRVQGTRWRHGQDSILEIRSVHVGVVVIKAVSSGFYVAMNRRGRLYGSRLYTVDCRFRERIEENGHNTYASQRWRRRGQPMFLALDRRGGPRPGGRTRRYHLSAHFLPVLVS
Vif A3G: inhibitors of Vif binding to APOBEC3G peptide, primary screen, biochemical, TR-FRET, GST-Vif 1-94, biotin-A3G peptide, dose response retest (AID 1117319). TR-FRET GST-Vif / biotin-A3G peptide binding; higher % means a stronger effect; test concentration not given here; strong numbers were not always called active. inhibition, %; hits with a dose series show IC50 in µM. 260,000 tested, 0.57% active;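 active = above the screen mean plus three standard deviations and confirmed in dose response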;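 also: Vif residues 1-94 fused to GST binding biotinylated APOBEC3G peptide 110-148; 0% = full assay without inhibitor and 100% = GST in place of GST-Vif; retest series ran down from 100 µM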
rRNA inh HTS: reduced GFP signal of wild-type E. coli, primary screen, bacterial rRNA inhibitor project, GFP/RFP fluorescence, OD600, single point; E. coli WT GFP vs humanized-ribosome RFP mutants, 24 h; stronger effect = lower value; DMSO median 0, no signal -100; GFP signal change (wild-type ribosome), % (test concentration not listed); 350,000 tested, 1.6% active; AID 720706, 2013;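 active = significant combined selectivity score with lowered wild-type GFP, culture density cut under 30%, mutant RFP and density less affected; inactive = any of these conditions unmet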; also: one replicate is shown; some compounds called inactive have numbers as strong as hits
rRNA inh HTS OD600: second read-out of rRNA inh HTS, no call of its own (marks repeat the call); OD600 change, %; measured here: OD600 growth;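 optical density of the mix in the first replicate; 0 = DMSO median and -100 = no signal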
rRNA inh HTS RFP: further read-out of rRNA inh HTS, marked with its call; RFP signal change, %; measured here: RFP humanized mutant strains;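 first replicate; 0 = DMSO median and -100 = no signal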
An asterisk follows results filed as active; i = inactive; / = not tested or not shown. Some of the compounds tested, so the mix of outcomes need not match the whole.

Sequence of screens: Vif A3G	rRNA inh HTS OD600	E coli growth	MLL AF4-AF9 inh	ALR inh	rRNA inh HTS	HNF4A DNA FP	rRNA inh HTS RFP	FGF22 binding
- O=C(N[C@@H]1CC[C@@H](CCNC(=O)C2CCOCC2)O[C@@H]1CO)c1ccccn1
  /	8	/	-1.6	/	0	/	-1.9	i
- COc1ccccc1/C=C1\Oc2cc(OC(=O)N3CCOCC3)ccc2C1=O
  10%	0	0.62	5.2	-5	-5	1.2	-1.5	i
- CC(=O)NCCC1CCN(c2nc3nonc3nc2N(C)Cc2ccccc2)CC1
  6%	-1	0.69	-8.9	1	4	5.5	3.9	i
- Cc1ccc(C)c(S(=O)(=O)N2CCCOC2CNC(=O)C(=O)NCc2ccc3c(c2)OCO3)c1 (centres undefined)
  -4%	20	0.69	1.3	-3	11	1.0	10	i
- Cc1ccccc1-c1cnc2c(c1)C(=O)N([C@@H](C)CO)C[C@H](C)[C@H](CN(C)CC1CCOCC1)O2
  /	11	/	-3.1	/	5	/	-2.2	i
- COc1cc(CNc2ncnc3c2ncn3[C@H]2CN(Cc3ccc(F)cc3)C[C@@H](CO)O2)cc(OC)c1OC
  /	3	/	2.9	/	1	-1.7	0.0	i
- O=Cc1cn(CC(=O)N2CCOCC2)c2ccccc12
  -3%	9	0.7	-9.2	-1	12	2.4	4.1	i
- CC1CCCC(C)N1C(=O)CN1C(=O)NC2(CCOc3ccccc32)C1=O (centres undefined)
  -3%	10	0.7	0.4	/	6	3.2	0.9	i
- O=C(CSc1nc2ccccc2c(=O)n1-c1ccc(F)cc1)NC1CCS(=O)(=O)C1 (centres undefined)
  1%	9	0.65	-0.3	/	8	-1.5	1.6	i
- CN(Cc1cc(-c2ccccc2)on1)C(=O)c1cc(COc2c(F)cccc2F)on1
  4%	-14	0.68	-2.5	-6	-8	0.6	-3.4	i
- O=C(O)c1ccc(CCCc2ccccc2)cc1
  -3%	-53	0.66	-0.4	/	-43	-2.8	-13	i
- O=C(C[C@H]1CC[C@@H]2[C@H](COC[C@H](O)CN2Cc2nccs2)O1)NCc1ccc(Oc2ccccc2)cc1
  /	-14	/	1.4	/	-1	/	-0.4	i
- CCNC(=O)Cc1ccc(S(=O)(=O)N2CCOCC2)s1
  0%	5	0.67	3.4	-10	2	4.2	-0.4	i
- Cc1cc(=O)oc2c3c(cc(OCC(=O)NCCN4CCOCC4)c12)OC(C)(C)CC3
  /	0	0.72	-1.9	-24	-1	3.5	6.8	i
- O=C(O)Cc1ccc(C(=O)c2ccc(Cl)cc2)s1
  -4%	/	0.73	/	2	/	0.7	/	/
- CCOC(=O)c1ccc(S(=O)(=O)n2c(CN3CCCCC3)nc3ccccc32)cc1
  3%	/	0.69	/	-7	/	2.8	/	/
- O=C(Nc1cccc(F)c1)N1CCCCN2[C@H](C1)[C@@H](c1ccc(-c3ccccc3F)cc1)[C@@H]2CO
  /	-64	/	-6.5	/	-45	/	2.6	i
- CCC(C(=O)NC1CCCCC1)N(Cc1cccs1)C(=O)c1snc(C(N)=O)c1N (centres undefined)
  /	-14	0.65	1.3	-1	-7	5.7	-2.9	i
- COCC(=O)Nc1ccc2c(c1)C(=O)N(C)C[C@@H](OC)[C@@H](C)CN(CC1CCCCC1)[C@@H](C)CO2
  /	5	/	3.0	/	1	/	-0.1	i
- C[C@@H]1CN([C@H](C)CO)C(=O)c2cc(NS(C)(=O)=O)ccc2O[C@@H]1CN(C)CC1CC1
  /	-1	/	-3.0	/	4	/	-1.9	i
- COc1ccc(-c2csc(C(O)(c3ccccc3)C(F)(F)F)n2)cc1 (centres undefined)
  /	-56	/	-14	/	-45	2.0	-10	i
- CSc1ccc(Cl)c(C(=O)OCC(=O)NC2CC2)c1
  5%	/	0.74	/	-1	/	3.1	/	/
- CCCC#Cc1ccc2c(c1)O[C@H](CN(C)S(C)(=O)=O)[C@@H](C)CN([C@H](C)CO)S2(=O)=O
  /	-9	/	1.1	/	-6	/	0.0	i
- CCS(=O)(=O)N1CCCCN2[C@H](CO)[C@@H](c3ccc(-c4ccc(C#N)cc4)cc3)[C@@H]2C1
  /	15	/	4.7	/	-4	/	4.4	i
- COc1ccc(C(=O)NC(=O)COC(=O)C2CC2C)cc1 (centres undefined)
  /	10	0.68	-3.1	-34	7	-0.1	-0.5	i
- Cc1ccccc1S(=O)(=O)N[C@H]1CC[C@@H](CCn2cc(-c3ccccc3)nn2)O[C@H]1CO
  /	-16	/	-4.2	/	-10	/	0.6	i
- CCCCN1C(=O)C(CC(=O)NCCc2ccccn2)CC(C(=O)N2CCOCC2)=C1C (centres undefined)
  -5%	17	/	-0.4	/	11	2.8	-1.5	i
- COc1ccccc1Nc1nc(-c2sc(NC(=O)CC(C)C)nc2C)cs1
  -2%	2	0.71	3.5	-23	-2	7.7	-0.3	i
- C[C@@H]1CN([C@H](C)CO)C(=O)c2cccc(NC(=O)C3CCOCC3)c2O[C@@H]1CN(C)S(=O)(=O)c1ccccc1
  /	1	/	-1.0	/	-1	/	-1.2	i
- O=C1CCC(=O)N1OCCCCOc1ccccc1
  16%	/	0.7	/	-7	/	3.5	/	/

Sequence of screens: Vif A3G	rRNA inh HTS OD600	E coli growth	MLL AF4-AF9 inh	ALR inh	rRNA inh HTS	HNF4A DNA FP	rRNA inh HTS RFP	FGF22 binding
- Cn1c(C(=O)O)c(C=O)c2ccccc21
  -2%	7	0.7	0.0	-9	9	-6.8	0.9	i
- CC1=C(C(=O)N2CCN(C(=O)c3ccco3)CC2)C2(CCC(C)CC2)OC1=O (centres undefined)
  10%	2	0.72	3.8	-9	0	-0.2	-2.6	i
- CCOC(=O)c1c(C)[nH]c(C(=O)N/N=C\c2ccccc2O)c1C
  /	-1	/	8.1	-30	-12	2.3	-1.9	i
- COc1ccc2c3c(n(C)c2c1)[C@@H](CO)N(S(=O)(=O)c1ccc(C)cc1)CC31CCN(C(=O)c2ccccn2)CC1
  /	-11	/	-1.6	/	-11	/	0.4	i
- CC1(C)NC(=O)N(CCOc2ccc3c(c2)CCC3)C1=O
  -7%	/	0.72	/	25	/	-0.8	/	/
- O=C(CCSc1ccc(Cl)cc1)N1CCN(S(=O)(=O)c2ccccc2)CC1
  -4%	-19	0.64	-1.0	3	-17	-2.0	-3.1	i
- Cc1nc(Nc2ccc(S(N)(=O)=O)cc2)sc1-c1ccccc1
  /	-37	0.65	4.8	48	-32	0.7	-8.8	i
- Cc1ccsc1C1NC(=O)c2c(sc3c2CCCC3)N1 (centres undefined)
  31%	/	0.65	/	-23	/	0.2	/	/
- N#Cc1ccccc1NC(=O)CN1CCN(Cc2ccccc2)CC1
  0%	-1	0.65	-0.5	/	1	5.6	0.7	i
- COc1ccc([N+](=O)[O-])cc1NC(=O)C(C)OC(=O)C1CC(=O)N(Cc2ccco2)C1 (centres undefined)
  11%	6	0.64	1.8	-2	3	3.7	-0.2	i
- O=c1oc2ccc(NS(=O)(=O)c3cccc4cccnc34)cc2s1
  /	1	0.7	-4.2	/	-3	2.5	2.1	/
- CCOC(=O)[C@]12CCCC=C1N(Cc1ccco1)C(=O)[C@H](CC(=O)NCc1ccc(OC)c(OC)c1)C2
  /	2	/	-0.8	/	-8	1.1	7.4	i
- O=C(c1ccccc1)c1ccc(Cn2cc(-c3ccccc3)nn2)cc1
  /	-5	0.69	/	1	-4	-2.2	2.1	i
- Cc1cc(=O)n(CCC(=O)O)c2ccccc12
  -2%	/	0.75	/	-6	/	-1.9	/	/
- COc1cccc(S(=O)(=O)N2CC3(CN[C@@H](CO)c4c3c3ccc(OC)cc3n4C)C2)c1
  /	-14	/	4.2	/	-3	/	4.1	i
- COc1ccc(S(=O)(=O)N(C)CC(=O)Nc2c(F)cccc2F)cc1
  2%	/	0.67	/	-3	/	-4.5	/	/
- Cc1noc(C)c1S(=O)(=O)N1CCC(C(=O)N2CCN(c3ccc(Cl)cc3)CC2)CC1
  32%	/	0.72	/	8	/	-2.7	/	/
- C[C@H](CO)N1C[C@H](C)[C@@H](CN(C)C(=O)c2ccc(F)cc2)Oc2ncc(C#C[C@@H](C)O)cc2C1=O
  /	4	/	-2.7	/	-4	/	-2.3	i
- COc1ccc(CNC(=O)c2ccc(N3CCC4(CC3)CC(c3ccc(Cl)cc3)=NO4)c(NC(=O)c3ccccc3)c2)cc1
  /	/	0.66	-12	0	/	-3.2	/	i
- OC(Cc1cccc(Br)c1)c1ncc(-c2ccccc2C(F)(F)F)[nH]1 (centres undefined)
  /	-52	/	2.6	/	-32	2.5	-11	i
- Cc1cc(NC(=O)COc2ccc(Cl)cc2Cl)n(CCC#N)n1
  2%	/	0.66	/	-11	/	0.6	/	/
- COc1cccc(NC(=O)N2CC(=O)N3[C@H](C2)[C@H](c2ccc(C#CC4CCCC4)cc2)[C@@H]3CO)c1
  /	7	/	1.0	/	0	/	2.9	i
- COc1ccc(CCN2CN(S(=O)(=O)c3ccccc3)c3nc4ccccc4nc32)cc1
  /	/	0.67	/	-3	/	-3.8	/	/
- CCN1C(=O)C(=O)N(CC(=O)NC(C)CCc2ccccc2)C1=O (centres undefined)
  -2%	10	0.66	0.9	/	10	-0.5	0.7	i
- COc1ccc(NC(=O)Nc2cccc3c2O[C@@H](CN(C)C(=O)Nc2ccccc2)[C@H](C)CN([C@H](C)CO)C3=O)cc1
  /	7	/	-1.2	/	-1	/	-0.9	i
- CCOC(=O)N1CCC(NC(=O)C2=CCN(S(=O)(=O)c3ccc(OC)cc3)CC2)CC1
  /	5	0.67	5.0	-3	9	-0.1	-1.6	i
- N#Cc1nc(Cc2cccc3ccccc23)oc1NCCCn1ccnc1
  -3%	/	0.71	/	-14	/	5.7	/	/
- COc1ccc(NC(=O)Nc2ccc3c(c2)CC(=O)N([C@H](C)CO)C[C@H](C)[C@H](CN(C)C(=O)Nc2ccc(F)cc2)O3)cc1
  /	1	/	-1.9	/	4	/	-1.6	i
- C[C@@H]1CN([C@@H](C)CO)C(=O)c2cc(NC(=O)NC3CCCCC3)ccc2O[C@H]1CN(C)S(=O)(=O)c1ccccc1
  /	3	/	-0.8	/	1	/	1.8	i
- COC(=O)CSc1nnc(CNC(=O)c2ccccc2F)n1-c1ccc(F)cc1
  9%	2	0.65	0.2	-11	1	-1.0	2.6	i

At a glance, 2 of the compounds above.
Sequence of screens: Vif A3G	rRNA inh HTS OD600	E coli growth	MLL AF4-AF9 inh	ALR inh	rRNA inh HTS	HNF4A DNA FP	rRNA inh HTS RFP	FGF22 binding
- C[C@@H]1CN([C@@H](C)CO)C(=O)c2cc(NC(=O)NC3CCCCC3)ccc2O[C@H]1CN(C)S(=O)(=O)c1ccccc1
  /	3	/	-0.8	/	1	/	1.8	i
- COC(=O)CSc1nnc(CNC(=O)c2ccccc2F)n1-c1ccc(F)cc1
  9%	2	0.65	0.2	-11	1	-1.0	2.6	i

Next section:
Sequence of screens: Vif A3G	rRNA inh HTS OD600	E coli growth	MLL AF4-AF9 inh	ALR inh	rRNA inh HTS	HNF4A DNA FP	rRNA inh HTS RFP	FGF22 binding
- N#Cc1c(N)nc2c(c1N)CC(COc1ccccc1)O2 (centres undefined)
  18%	/	0.7	/	-18	/	4.2	/	/
- CCSC1=C(C#N)C(c2cccc(O)c2)CC(=O)N1 (centres undefined)
  6%	-2	0.75	-0.6	-2	-2	2.2	-0.9	i
- c1ccc2c(C[C@@H]3CNCCN3CC3CCCCC3)cccc2c1
  /	-77	/	7.4	-6	-53	0.3	-27	i
- O=C(Nc1cccnc1)c1cccc(S(=O)(=O)N2CCCCC2)c1
  2%	2	0.68	0.4	/	4	5.2	1.9	i
